# Screens from PubChem.
# HPGD block – qHTS Assay for Inhibitors of HPGD (15-Hydroxyprostaglandin Dehydrogenase); purified HPGD, NADH fluorescence kinetic, PGE2 substrate; AID 894, 2007; Potency, µM, for the others: at the top dose activity change, negative = inhibition, most hits filed as inhibitors; 150,000 tested, 4.3% active; 15-hydroxyprostaglandin dehydrogenase [NAD(+)] (Homo sapiens), P15428; active = well fitted inhibition curve with a large enough effect (not every such curve was filed as active); inconclusive = small, poorly fitted or top-dose-only effect, or another doubt; inactive = no such curve, though single readings can be large or run the other way;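 also: top concentration of the series not given in the record; plate controls included wells without enzyme; inactives centre near -10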
# Target sequence (P15428 whole entry, looked up): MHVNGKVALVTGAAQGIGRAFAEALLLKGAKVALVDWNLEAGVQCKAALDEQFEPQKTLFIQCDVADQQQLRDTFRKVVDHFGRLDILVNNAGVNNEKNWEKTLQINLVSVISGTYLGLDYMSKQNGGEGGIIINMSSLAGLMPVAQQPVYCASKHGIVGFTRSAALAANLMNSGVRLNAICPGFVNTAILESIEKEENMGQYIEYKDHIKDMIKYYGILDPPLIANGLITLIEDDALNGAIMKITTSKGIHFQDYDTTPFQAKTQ
#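 20 nM HPGD preincubated 15 min at room temperature with compound in 50 mM Tris-HCl pH 8, 0.01% Tween 20. Started with 1 mM NAD+ and 30 uM prostaglandin E2; NADH fluorescence (360/450 nm) read 5 times over 30-s intervals, last minus first.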
# * hit, by the source's call; u = inconclusive; & = joins results of further samples. % is scaled to controls: 0 for no effect and ±100 for the full control effect; potency is read from the fitted curve at half-maximal effect. A portion of the library (hit frequency here may not be typical).
SMILES,HPGD block
C[n+]1cn(/N=C/c2ccccc2)c2ccccc21,-6%
Cc1cc(SCC(=O)N/N=C/c2ccc(O)cc2O)c(C)cc1Br,20µM*
Cc1noc(C)c1C(=O)N1CCC(Cc2ccccc2)CC1,-6%
O=C(O)C1CCN1C1CCCCC1 (stereo not drawn),-7%
O=C(COC(=O)c1ccc(Sc2ccccc2)c([N+](=O)[O-])c1)NC1CCCc2ccccc21 (stereo not drawn),-20%
COc1ccc(NC(=O)C2C3C=CC(O3)C2C(=O)NCc2cccnc2)cc1 (stereo not drawn),-2%
CCc1cc2c(cc3c(=O)n(CC(=O)N4CCN(c5ccccn5)CC4)nc(CC)n32)s1,-12%
CCNc1nc(N)c(C(=C(C#N)C#N)c2ccccc2)s1,u
O=C(Nc1ccc(-c2nc3ccccc3s2)c(O)c1)C1=COCCO1,-19%
O=C(N/N=C/c1ccccc1[N+](=O)[O-])c1ccc(CN2CCOCC2)cc1,-14%
COC(=O)c1nn(-c2ccc3c(c2)CCN3C(C)=O)cc1O,u
CCN(CCO)c1ncnc2c1sc1nc(CC(C)C)c3c(c12)CC(C)(C)OC3,u
COc1ccc(OC)c(C(=O)COC(=O)c2ccc(C)o2)c1,-18%
CCOC(=O)c1c(-c2ccc(C)cc2)csc1NC(=O)c1cccc(N2C(=O)CCC2=O)c1,-25%
CC(C)c1ccccc1NC(=O)COC(=O)Cc1cccc(C(F)(F)F)c1,-5%
CCOC(=O)c1c(NC(=O)CSc2nnnn2C)sc(C)c1C,-3%
Cc1ccc(-n2sc3ccccc3c2=O)cc1S(=O)(=O)N1CCCCC1,1µM*
COc1ccc2nc(SCC(=O)NCc3ccc4c(c3)OCO4)[nH]c2c1,-13%
COc1ccccc1N1CCN(CC(=O)c2ccc3ccn(C(C)=O)c3c2)CC1,-12%
CCc1ccc(NC(=O)COn2nnc3ccc(S(=O)(=O)N(C)C)cc32)cc1,-16%
CCC(=O)/C=C/C1C(C)=CCCC1(C)C (stereo not drawn),-7%
CCOc1ccccc1Oc1cn[nH]c1-c1ccc(OC)cc1O,-10%
CCOc1ccc(S(=O)(=O)N2CCN(S(=O)(=O)c3ccc(OCC)cc3)C(C)C2)cc1 (stereo not drawn),-10%
O=C(NCCCN1CCCCCC1)c1ccc(CS(=O)(=O)Cc2ccccc2F)o1,-10%
CCC(=O)Nc1ccc(S(=O)(=O)NCc2ccco2)cc1,-11%

# A second format for part of the listing above:
molecule | HPGD block
Cc1noc(C)c1C(=O)N1CCC(Cc2ccccc2)CC1 | -6%
CCOc1ccc(S(=O)(=O)N2CCN(S(=O)(=O)c3ccc(OCC)cc3)C(C)C2)cc1 (stereo not drawn) | -10%
CC(C)c1ccccc1NC(=O)COC(=O)Cc1cccc(C(F)(F)F)c1 | -5%

# Further records:
SMILES,HPGD block
CCOC(=O)N1CCN(c2c(NCc3ccc(Cl)cc3)c(=O)c2=O)CC1,-6%
CCCCc1c(C)nc2ccc(OC)cc2c1SCCC(=O)O,-8%
COc1ccc(C(Cl)=C(c2ccc(OC)cc2)c2ccc(OC)cc2)cc1,-22%&-20%&-20%
CS(=O)(=O)N1CCC(C(=O)NCCc2ccccc2)CC1,-8%
Cc1ccccc1Cn1ccc(NC(=O)c2nc3ncccn3n2)n1,-1%
O=C(O)CSc1c(-c2cccs2)[nH]c2ccccc12,-11%
COCn1c(=O)c2c(nc(SC3=NCCS3)n2Cc2ccccc2C)n(COC)c1=O,-17%
COc1ccc(/C=C/C(=O)Nc2sc(Cc3ccccc3)c(C)c2C(N)=O)cc1,u
Cc1ccccc1-c1coc2cc(O)ccc2c1=O,u
CC(=O)OCCN(Cc1ccccc1)Cc1ccc2c(c1)OCO2,-11%
O=C(N/N=C/C1C(c2ccccc2)C1(Cl)Cl)c1cccc(Br)c1 (stereo not drawn),-11%
O=C(O)CN(Cc1ccccc1)S(=O)(=O)c1ccc(F)cc1,-8%
CCOC(=O)c1nn(-c2c(C)n(C)n(-c3ccccc3)c2=O)cc1O,-16%
CC(C)n1cc(/C=C2/SC(=O)N(CC(=O)N3CCCC3)C2=O)c2ccccc21,-5%
O=S(=O)(Cc1ccc(Cl)cc1)Nc1ccc2c(c1)OCO2,-2%
Cc1onc(-c2ccccc2Cl)c1C(=O)NCc1cccs1,-8%
COC(=O)C1=C(C)N(C)C(=O)/C1=C\c1ccco1,-9%
N#C/C(=C/c1ccc(C(=O)O)cc1)C(=O)NCc1ccccc1,u
Cc1ccccc1Cn1c(=O)n(CCCC(=O)NCc2ccco2)c(=O)c2ccccc21,-12%
O=[N+]([O-])c1ccc([C@H](O)[C@H](CO)N=Cc2ccccc2O)cc1,-9%
CCOc1ccc(C(=O)Nc2ccc(C(F)(F)F)n(C)c2=O)cc1,u
CC(C)CNC(=O)c1cc2nc3c(c(C(F)(F)F)n2n1)CCc1ccccc1-3,u
COc1ccc(N(C)S(=O)(=O)c2cccc(C(=O)Nc3ccc(-n4cnnn4)cc3)c2)cc1,u
CCN(C(=O)Cc1ccc(Br)cc1)C1CCCCC1,-7%
CCC(CC)c1nnc(NC(=O)c2cc(C(=O)OC)cc([N+](=O)[O-])c2)s1,-16%

# 5 consecutive records already listed, quoted:
SMILES,HPGD block
O=C(N/N=C/C1C(c2ccccc2)C1(Cl)Cl)c1cccc(Br)c1 (stereo not drawn),-11%
O=C(O)CN(Cc1ccccc1)S(=O)(=O)c1ccc(F)cc1,-8%
CCOC(=O)c1nn(-c2c(C)n(C)n(-c3ccccc3)c2=O)cc1O,-16%
CC(C)n1cc(/C=C2/SC(=O)N(CC(=O)N3CCCC3)C2=O)c2ccccc21,-5%
O=S(=O)(Cc1ccc(Cl)cc1)Nc1ccc2c(c1)OCO2,-2%

# The list goes on:
SMILES,HPGD block
CCCNC(=S)N1CCC(C(=O)c2ccc(OC)cc2)CC1,-5%
O=C1Cn2c(nc3ccccc32)-c2ccccc2N1,-13%
CCCCOc1ccc(N2C(=O)CC(NCCc3ccc(S(N)(=O)=O)cc3)C2=O)cc1 (stereo not drawn),-13%
Cc1cc(C)n2c(SCc3ccccc3Cl)nnc2n1,-24%
C=CCSc1ncccc1C(=O)NCc1ccc(C)cc1,-16%
CN1CCN(CC(=O)N2N=C(c3cccs3)CC2c2ccco2)CC1 (stereo not drawn),u
Cc1ccc(Nc2nc(NCC3CCCO3)nc(N)c2[N+](=O)[O-])cc1C (stereo not drawn),-11%
CC(NC(=O)C1CC2CCCC(C1)C2=O)c1ccccc1 (stereo not drawn),-10%
O=C(NCc1ccc(Cl)cc1)c1cc2ccccn2n1,-19%
Cc1occc1-c1nnc(SCC(=O)NCCc2ccccc2)n1Cc1ccccc1,-24%
CCC1=C2CC[C@H]3C(=O)N(CC(=O)OC)C(=O)[C@H]3[C@H]2[C@@]2(Cc3ccccc3)C(=NCCOC)OC(=O)N2C1=O,-8%
O=C(NN1C(=O)C2C3CCC(O3)C2C1=O)c1ccc(Cl)cc1 (stereo not drawn),3%
CCN(CC)c1ccc(CC(=O)NC(C)Cc2ccccc2)cc1 (stereo not drawn),-19%
CCC(CC)NC(=O)C1CCN(S(=O)(=O)c2cccs2)CC1,-5%
CCc1nc(SCc2ccc(C(=O)OC)o2)c2c(=O)n(C)c(=O)n(C)c2n1,-8%
c1ccc(OCc2nn3c(Cn4nnc5ccccc54)nnc3s2)cc1,8.9µM*
N#Cc1cc2c(nc1SCC(=O)Nc1sc3c(c1C#N)CCC3)CCC2,-24%
COC(=O)c1c(-c2cccc3ccccc23)csc1NC(=O)Cc1ccc(OC)c(OC)c1,-13%
CC(=O)Nc1ccc(S(=O)(=O)N2CCN(C34CC5CC(CC(C5)C3)C4)CC2)cc1,3%
CC(/C=N\N1CCN(Cc2ccc(C)cc2)CC1)=C\c1ccccc1,-23%
Cc1oc(-c2ccccc2)cc1C(=O)Nc1cccc(C(=O)O)c1,-16%
CCOCCCNC(=O)C(c1ccc(Cl)cc1)N(Cc1cccs1)C(=O)CNC(C)=O (stereo not drawn),0%
Cc1nc(N2CCN(C)CC2)c2sc(=S)n(C)c2n1,u
O=C(O)Cc1coc(-c2ccc(F)cc2)n1,-9%
COCCn1nnnc1C(c1cccc(OC)c1OC)N1CCN(C2CCCCC2)CC1 (stereo not drawn),-3%

# HPGD block: hit marks shown above.
SMILES,HPGD block
Cc1cc(SCC(=O)N/N=C/c2ccc(O)cc2O)c(C)cc1Br,20µM*
Cc1ccc(-n2sc3ccccc3c2=O)cc1S(=O)(=O)N1CCCCC1,1µM*
c1ccc(OCc2nn3c(Cn4nnc5ccccc54)nnc3s2)cc1,8.9µM*

# The list continues.
SMILES,HPGD block
Cc1ccc(C)c(/C=C/C(=O)c2ccccc(=O)c2O)c1,-13%
OCCN1CCN(C(=S)NCCc2ccccc2)CC1,-5%
O=C(CSc1ncnc2ccccc12)Nc1ccc2c(c1)OCO2,-7%
CCCCc1ccc(NC(=S)Nc2cccnc2)cc1,-5%
Cc1ccc(NC(=O)OCc2cn(-c3ccc(Cl)cc3)nn2)cc1,-6%
CCNc1nc(CC)nc2c1oc1ccccc12,-12%
CCOc1ccc(C(=O)N2CCc3cc(OC)c(OC)cc3C2)cc1OCC,-2%
c1ccc(N2CCN(c3nnc(Cc4cccnc4)c4ccccc34)CC2)nc1,-26%
c1ccc(CN=C2NN=C(c3cc4ccccc4o3)CS2)cc1,16µM*
O=C(Cc1ccc(Cl)cc1)Nc1cccc(-c2nnc(-c3ccco3)o2)c1,-12%
CC1SCC(=O)N(CC(=O)Nc2ccc3c(c2)OCO3)C1=O (stereo not drawn),-1%
COc1cccc(-c2coc3ccc(Br)cc3c2=O)c1,-5%
O=C(NCCCN1CCOCC1)C(=O)N/N=C/c1ccccc1,-12%
C=CCn1c(SCC(=O)Nc2ccccc2)nc2scc(-c3cccs3)c2c1=O,-18%
CCN(CC)C(=O)CSc1ncnc2sc(-c3ccccc3)cc12,u
O=c1[nH]c(=O)n(Cc2ccco2)c2c1C(C(F)(F)F)(C(F)(F)F)N=C(CCc1ccccc1)N2,-20%
Cc1nnc(C)n1/N=C/c1cccn1C,4%
CC(C)=C1SC(N2CCN(c3cccc(Cl)c3)CC2)=NC1=O,-22%
C=CCN(CC(=O)NCc1ccccc1)C(=O)c1csnn1,-2%
COc1ccc(OCc2nnc(SC3CCOC3=O)n2-c2ccccc2)cc1 (stereo not drawn),-2%
COc1ccccc1NC(=O)CN1CCN(C(=O)c2ccco2)CC1,1%
CCOC(=O)C1=C(CC)OC(N)=C(C#N)C1c1ccc(OC)cc1OC (stereo not drawn),-16%
NC1=NC(=O)/C(=C/c2cn(CCC(=O)O)nc2-c2ccc(Cl)cc2)S1,13µM*
C=CCOc1ccc(CNc2ccc(NC(=O)CCC)cc2)cc1OCC,-1%
CO[C@H]1C([C@@]2(C)O[C@@H]2CC=C(C)C)[C@]2(CC[C@H]1OC(=O)/C=C/C=C/C=C/C=C/C(=O)O)CO2 (stereo partly drawn),-15%

# Going on with the list.
SMILES,HPGD block
CC(C)OC(=O)c1c(F)c(F)c(N2CCOCC2)c(F)c1F,-18%
COc1ccccc1-n1cnc2cc(C(=O)NCC3CCCO3)ccc21 (stereo not drawn),13µM*
CCC1=Nc2cc(C(=O)O)ccc2Sc2ccc(Cl)cc21,-19%
CCCCOc1ccc(Cc2n[nH]c(=S)n2N)cc1,2.5µM*
C=CCn1cc(/C=N\NC(=O)c2cc3c(ccc4ccccc43)o2)c2ccccc21,u
O=C(CCc1ccc(S(=O)(=O)N2CCOCC2)cc1)N/N=C/c1cccc(O)c1,-5%
Cc1cccc2nc(-c3ccccc3)nc(N3CCC(O)(c4ccc(Cl)cc4)CC3)c12,u
CCOC(=O)/C(C#N)=C/c1cc2ccccc2nc1N1CCOCC1,-15%
O=C(Oc1ccc2c(c1)O/C(=C\c1ccncc1)C2=O)c1ccccc1,-24%
Cc1ccc(C)c(OCC(=O)N/N=C/c2c(C)nn(-c3ccccc3)c2Cl)c1C,-8%
Cc1c(Cl)cccc1NC(=O)CN1CCN(CCO)CC1,-15%
CCSc1nnc(N)s1,3%
O=C(N/C(=C/c1cccnc1)C(=O)N1CCOCC1)c1ccccc1Br,-2%
Cc1ccc(Nc2cc(C)nc(NCc3ccccc3)n2)cc1,-10%
c1ccc2c(c1)nc(Nc1ccc3c(c1)OCO3)c1nnnn12,-2%
CCOC(=O)CN1CC23C=CC(O2)C(C(=O)NCCc2ccccc2)C3C1=O (stereo not drawn),0%
O=C(c1ccco1)N1CCN(C(=O)C2CCN(S(=O)(=O)Cc3ccccc3)CC2)CC1,1%
CCOC(=O)CN(c1cccc(C(C)=O)c1)S(C)(=O)=O,-2%
CC(C/C=N/NC(=O)COc1cc(Cl)ccc1Cl)c1ccccc1 (stereo not drawn),-27%
Cc1cc(=O)[nH]c(SCC(=O)Nc2cccc(C(F)(F)F)c2)n1,-14%
CCN(CC)CCn1c2ccccc2c2nc(C)sc21,-7%
Cc1ccc(S(=O)(=O)NC(=O)NCc2ccccn2)cc1,-1%
O=C(Cn1c(NCCO)nc2ccccc21)NCCc1ccc(F)cc1,-14%
Cc1nn(-c2ccccc2)c2nc3c(cc12)C(=O)CCC3,u
COC(=O)c1ccccc1NC(=O)Cn1cc(Br)cn1,-5%
COc1ccc(-c2cc3ccccc3c(=O)o2)cc1,u
O=c1cc(N2CCC3(CC2)OCCO3)[nH]c(=O)n1-c1ccc(Br)cc1,-15%

# 3 of the entries above in order of their number in HPGD block, rising.
SMILES,HPGD block
Cc1c(Cl)cccc1NC(=O)CN1CCN(CCO)CC1,-15%
Cc1ccc(C)c(OCC(=O)N/N=C/c2c(C)nn(-c3ccccc3)c2Cl)c1C,-8%
CCOC(=O)CN(c1cccc(C(C)=O)c1)S(C)(=O)=O,-2%
